# Bioassay records from PubChem.
# Sfp inh – inhibitors of Bacillus subtilis Sfp phosphopantetheinyl transferase | 310,000 compounds, 3.5% hits | Biochemical Sfp PPTase activity, qHTS | AID 1490 | Q9F4F7 | Potency, µM, without a hit: max response, negative = inhibition, actives largely listed as inhibitors; active means well fitted inhibition curve with a large enough effect; inconclusive means small, poorly fitted or top-dose-only effect, or another doubt; inactive means no such curve, though single readings can be large or run the other way;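 further: the enzyme is Sfp with the accession as filed and its product quenches rhodamine fluorescence; potency means the concentration at half of the fitted maximal effect; 0% = enzyme reaction without inhibitor and -100% = no enzyme wells; top concentration of the series not given in the record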
#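 Reaction rates are the 30-min fluorescence difference (ex 525, em 598 nm) in wells containing 15 nM Sfp, 5 uM rhodamine-CoA and 12.5 uM BHQ-2-YbbR at pH 7.6 with 10 mM MgCl2.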
# ClpP mod – qHTS Assay for Activators of ClpP. ATP-dependent Clp protease proteolytic subunit (Bacillus subtilis (strain 168)), P80244. purified B. subtilis ClpP, FRET peptide cleavage, 20 min. Potency, µM (top dose mostly 57.5 µM), for the others: at the highest dose activity change, negative = active. 340,000 compounds, 1.9% hits; active = well fitted falling curve with a large enough effect; inconclusive = small, poorly fitted or top-dose-only effect; inactive = no such curve, though single readings can be large or run the other way; further: potency means the concentration at half of the fitted maximal effect; the source files actives as falling curves though it sought activators and does not explain the sign; nearly all actives have a fitted effect of over 65% in size; many hits overshoot -100%
# Target sequence (P80244 whole entry, looked up): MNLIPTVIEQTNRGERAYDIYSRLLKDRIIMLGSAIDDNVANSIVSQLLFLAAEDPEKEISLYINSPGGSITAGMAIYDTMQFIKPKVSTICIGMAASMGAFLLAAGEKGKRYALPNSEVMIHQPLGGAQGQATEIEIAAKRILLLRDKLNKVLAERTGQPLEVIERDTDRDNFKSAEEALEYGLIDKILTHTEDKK
#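 FRET quenching reversal measured ClpP activation: 10 microg/mL B. subtilis ClpP at pH 8 with the FRET-FV decapeptide, read at 430 nm after 320 nm excitation. The 20-min minus 0-min signal was scaled between DMSO/no-enzyme wells and ADEP (5.8 microM final).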
# TRPV1 PAM – enhances activation of the human vanilloid receptor TRPV1. 320,000 compounds, 0.02% hits. TRPV1-expressing cells, Fluo-8 calcium influx, capsaicin EC20 potentiation; host cell line not named in the record; control for the full effect not named in the record. potentiation, % at 8.33 µM. AID 540277; active means potentiation above 80%; inconclusive means 30% to 80%; inactive means below 30%; further: 0% is about no effect
# Target sequence (Q8NER1 whole entry, looked up): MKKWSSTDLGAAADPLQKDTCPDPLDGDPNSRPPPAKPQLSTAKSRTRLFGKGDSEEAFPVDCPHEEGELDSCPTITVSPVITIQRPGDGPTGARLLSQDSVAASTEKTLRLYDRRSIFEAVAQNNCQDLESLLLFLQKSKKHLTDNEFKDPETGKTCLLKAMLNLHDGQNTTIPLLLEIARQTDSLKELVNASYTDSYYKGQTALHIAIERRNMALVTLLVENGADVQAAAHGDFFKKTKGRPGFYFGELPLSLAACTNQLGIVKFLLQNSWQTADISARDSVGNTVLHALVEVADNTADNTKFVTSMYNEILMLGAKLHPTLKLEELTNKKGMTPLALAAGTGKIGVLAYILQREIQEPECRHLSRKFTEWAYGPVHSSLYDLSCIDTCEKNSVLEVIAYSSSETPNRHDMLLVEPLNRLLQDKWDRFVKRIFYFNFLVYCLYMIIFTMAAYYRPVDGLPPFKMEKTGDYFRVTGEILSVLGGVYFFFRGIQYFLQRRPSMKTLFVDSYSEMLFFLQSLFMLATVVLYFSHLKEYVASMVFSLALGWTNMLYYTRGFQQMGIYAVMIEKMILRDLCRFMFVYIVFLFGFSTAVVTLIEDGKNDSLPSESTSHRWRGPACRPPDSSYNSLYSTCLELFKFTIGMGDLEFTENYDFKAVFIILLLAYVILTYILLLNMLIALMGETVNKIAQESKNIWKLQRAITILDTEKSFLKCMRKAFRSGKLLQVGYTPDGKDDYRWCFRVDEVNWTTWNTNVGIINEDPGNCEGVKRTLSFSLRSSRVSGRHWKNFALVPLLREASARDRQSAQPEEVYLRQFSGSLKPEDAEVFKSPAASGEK
#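 Cells expressing TRPV1 were dye-loaded with Fluo-8 and read kinetically: 10 s baseline, 3 min after compound (agonist portion), then 2 min after EC20 capsaicin (allosteric enhancer portion). Calcium-bound dye fluorescence at 480/520 nm.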
# gsp antag – gsp mutant antagonism. Potency, µM (top dose mostly 76.9 µM), for the others: top-dose activity change, negative = inhibition, actives largely listed as inhibitors. 340,000 compounds, 0.4% hits. gsp-mutant cells, cAMP HTRF, 30 min; control for the full effect not named in the record. AID 624288; active = falling curve of any shape with a large fitted effect; inconclusive = falling curve, mostly with a smaller effect; inactive = flat or rising curve; cell line not stated here;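 further: intracellular cAMP measured with PDE inhibitor Ro 20-1724 present during compound exposure; potency means the concentration at half of the fitted maximal effect; on the % scale 0 is the no-effect control and ±100 the full control effect; nearly all actives have a fitted effect of over 65% in size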
#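 HTRF cAMP read-out (cAMP-d2 plus anti-cAMP antibody-K in lysis buffer, 30 min RT). Before lysis, cells are exposed to compounds with […] for 30 min at 37C in DPBS containing Ca/Mg, BSA and Tween 20.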
# Menin-MLL FL inh – displaces fluorescein MLL peptide from human menin; Fluorescence polarization, fluorescein-MLL peptide displacement from menin; FP activity change, % at 61.4 µM; 290,000 tested, under 10 active; inconclusive = falling polarisation curve, or a change in total fluorescence; inactive = total fluorescence flat and polarisation flat or rising; no compound was filed as active; the % refers to the polarisation; negative = inhibition;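 further: % of control where 0% means no effect; inhibitors lower the polarisation; unlabelled MLL peptide was the positive control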
# gsp ag – gsp mutant agonism | gsp mutant cells, cAMP HTRF, 30 min; control for the full effect not named in the record | Potency, µM (titrated, usually from 76.9 µM), for inactives: at the highest dose activation (cAMP increase), actives largely listed as activators | 340,000 compounds, 0.13% hits; active = well fitted activation curve with a large enough effect; inconclusive = small, poorly fitted or top-dose-only effect, or another doubt; inactive = no such curve, though single readings can be large or run the other way; cell line not stated here;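 further: phosphodiesterase inhibitor Ro 20-1724 added with compounds to block cAMP breakdown; potency means the concentration at half of the fitted maximal effect; nearly all actives have a fitted effect of over 60% in size; about a fifth of the inactives were tested at one dose only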
#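 Cells stably selected in G418 were plated at 2000/well, grown 16-24 hr, then given compounds in DMSO with the PDE inhibitor […] (300 uM solution added) for 30 min at 37C; cAMP was read by HTRF.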
# CtBP-E1A blk – CtBP/E1A binding inhibition | 340,000 compounds, 0.49% hits | AID 651724 | AlphaScreen GST-E1A/His-CtBP binding, 1536-well; hits give low values; control for the full effect not named in the record | activity change, % (test concentration not listed); in the data active means activity change below about -65%; inconclusive means about -30% to -65%; inactive means above about -30%; further: on the % scale 0 is the no-effect control and ±100 the full control effect
#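 In 5 uL wells, 23 nL compound meets equimolar GST-E1A and His-CtBP (5X stock 125 nM each) for 2 h, 37 °C. Beads (5X, 50 ug/mL) then 1 h, 37 °C, dark.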
# * marks the source's active call; other numbers are inactive results; u = inconclusive; x = not tested or not shown; & = joins results of further samples; [ ] = dose if it differs, or a comment.
SMILES,Sfp inh,ClpP mod,TRPV1 PAM,gsp antag,Menin-MLL FL inh,gsp ag,CtBP-E1A blk
O=[N+]([O-])c1ccc(N2CCN(c3nc(-c4ccc(Cl)cc4)cs3)CC2)cc1,19.0%,-2.0%,12.2,8.1%,-1.3,-45.5%[inhibitor],0.0
CC1C(=O)Nc2ccccc2N1C(=O)c1ccc(F)cc1 (stereo not given),8.2%,x,4.6,-0.4%,-4.6,0.3%,8.1
CC(C)Cn1c(SCC(=O)NC2CC2)nc2ccc(Cl)cc2c1=O,x,-2.4%,x,x,x,-76.5%[inhibitor],1.9
CCNC(=O)NC1(C(=O)Nc2ccc3c(c2)OCCO3)CCCCC1,-11.2%,-2.5%,4.1,9.8%,-0.9,-11.8%,6.3
C[C@@H]1CN([C@H](C)CO)C(=O)CCCn2cc(nn2)CO[C@H]1CN(C)C(=O)Nc1ccc(F)cc1,x,-0.9%,x,x,x,-38.4%[inhibitor],-14.3
CC1(C)C2CCC1(CS(=O)(=O)NCc1ccc(C(=O)O)cc1)C(=O)C2 (stereo not given),22.1%,-1.7%,12.1,5.4%,-1.7,-2.4%,7.8
COc1ccc2[nH]c(=O)c(CN(Cc3ccccc3)C(=S)NCC3CCCO3)cc2c1 (stereo not given),-1.6%,4.2%,-23.3,-14.8%,4.4,-75.3%[inhibitor],x
CCCn1c(SCC(=O)Nc2nnc(C(C)C)s2)nc2c1c(=O)n(C)c(=O)n2C,17.9%,-0.5%,-8.7,8.1%,1.3,u,-1.0
CCO[C@H]1OC(C(=O)Nc2ccccc2)=C[C@@H](C)[C@@H]1CCCO,13.2%,-4.0%,8.1,-9.5%,-6.5,u,-14.0
COC(=O)CN(c1ccc(C(C)C)cc1)S(=O)(=O)c1c(C)[nH]c(=O)[nH]c1=O,21.5%,3.0%,x,-8.4%,-3.0,-10.8%,3.7
C=CCn1c(=NC(=O)CC)n(C)c2ccccc21,9.3%,-1.6%,5.1,4.3%,2.1,-6.7%,4.4
CCCOC(=O)c1ccc(Oc2coc3c(CN(CC)CC)c(O)ccc3c2=O)cc1,10.2%,-1.4%,-7.0,-10.3%,-1.4,-16.0%[15.4 µM],-14.3
COc1ccc(Cc2noc(CN(C)CC(O)c3ccccc3)n2)cc1OC (stereo not given),-8.0%,1.2%,-23.0,5.3%,0.7,0.7%,12.8
COc1ccc(CN2CCCN(C)CC2)c(OC)c1C,79.4µM*,x,-5.8,10.3%,-10.4,-47.8%[inhibitor],-0.6
CC(=O)Nc1cccc(NC(=O)C(=O)NCC(c2ccco2)N2CCc3ccccc32)c1 (stereo not given),x,x,9.6,-24.4%,x,16.7%[15.4 µM],-12.1
COc1ccccc1C(=O)NC(=O)COC(=O)CNC(=O)c1ccccc1F,x,-10.3%,x,-6.2%,x,-61.8%[inhibitor],x
COc1ccc(NC(=O)CCN2C(=O)c3ccccc3S2(=O)=O)c(OC)c1,20.2%,x,5.3,-3.6%,1.3,-33.1%[inhibitor],-23.4
O=C(O)C1CC(=O)N(CCOc2ccccc2)C1 (stereo not given),18.3%,-0.6%,-9.1,-4.7%,-1.0,12.8%,2.4
O=[N+]([O-])c1ccc(S(=O)(=O)NNC(=S)NCCc2ccccc2)cc1,17.7%,0.8%,2.0,u,x,-9.8%,5.0
CC1(C)C(=O)OC(c2ccccc2)C2(CCCC2)C1=O (stereo not given),11.3%,-4.1%,13.3,-12.2%,4.7,-9.1%,-0.3
CCOC(=O)C1=NN(c2ccccc2C)C2=NC(C)=C(C(=O)OC)C(c3cccc(OC)c3)N12 (stereo not given),u,0.2%,-16.2,-24.4%,4.6,-39.3%[inhibitor],-2.0
O=C(NCC1CCCCC1)c1cc2ccccc2cc1O,-16.1%,-4.5%,-12.0,-21.8%,x,-49.0%[inhibitor],-4.2
O=S(=O)(c1cccc2cccnc12)N1CCN(c2ccc(F)cc2)CC1,11.4%,2.4%,5.6,7.2%,-3.8,11.1%,x
CCN(CC)CCn1c2c(c(SCC(=O)Nc3nc(C)cs3)nc1=O)CCCC2,x,-0.6%,4.7,-2.8%,x,-4.9%[15.4 µM],-1.0
Cc1ccc(-c2cc(C(=O)N/N=C\c3cnn(C)c3C)c3ccccc3n2)cc1C,-5.9%,-7.6%,-2.9,-4.0%,1.3,0.4%,-2.9

# Shown with values under each structure: part of the list above.
# Results follow in this order: Sfp inh, ClpP mod, TRPV1 PAM, gsp antag, Menin-MLL FL inh, gsp ag, CtBP-E1A blk
> CCCOC(=O)c1ccc(Oc2coc3c(CN(CC)CC)c(O)ccc3c2=O)cc1
 : 10.2%, -1.4%, -7.0, -10.3%, -1.4, -16.0%[15.4 µM], -14.3
> O=S(=O)(c1cccc2cccnc12)N1CCN(c2ccc(F)cc2)CC1
 : 11.4%, 2.4%, 5.6, 7.2%, -3.8, 11.1%, x

# A draw from above in order of SMILES length, smallest number first:
SMILES,Sfp inh,ClpP mod,TRPV1 PAM,gsp antag,Menin-MLL FL inh,gsp ag,CtBP-E1A blk
COc1ccc(CN2CCCN(C)CC2)c(OC)c1C,79.4µM*,x,-5.8,10.3%,-10.4,-47.8%[inhibitor],-0.6
CC1C(=O)Nc2ccccc2N1C(=O)c1ccc(F)cc1 (stereo not given),8.2%,x,4.6,-0.4%,-4.6,0.3%,8.1
O=S(=O)(c1cccc2cccnc12)N1CCN(c2ccc(F)cc2)CC1,11.4%,2.4%,5.6,7.2%,-3.8,11.1%,x
Cc1ccc(-c2cc(C(=O)N/N=C\c3cnn(C)c3C)c3ccccc3n2)cc1C,-5.9%,-7.6%,-2.9,-4.0%,1.3,0.4%,-2.9
COC(=O)CN(c1ccc(C(C)C)cc1)S(=O)(=O)c1c(C)[nH]c(=O)[nH]c1=O,21.5%,3.0%,x,-8.4%,-3.0,-10.8%,3.7

# (listing goes on)
SMILES,Sfp inh,ClpP mod,TRPV1 PAM,gsp antag,Menin-MLL FL inh,gsp ag,CtBP-E1A blk
Cc1nn(CCC(=O)NNC(=S)Nc2ccc(F)cc2)c(C)c1[N+](=O)[O-],-7.2%,-0.5%,-12.3,-9.7%,-0.2,22.8%,0.0
Nc1ccc(S(=O)(=O)Nc2ccnn2-c2ccccc2)cc1,10.8%&22.4%&-8.8%,-3.0%&-0.8%&1.9%,-5.7,0.1%,6.0,x,1.2
CCN(CC)S(=O)(=O)c1ccc(C(=O)NCC(c2cccs2)N2CCOCC2)cc1 (stereo not given),0.1%,-0.6%,-12.8,-2.0%,5.1,-3.2%,3.2
COC(=O)c1cccc(C23CC4(C2)[C@H](CN(Cc2ccc(C(F)(F)F)cc2)[C@@H]4c2ccccc2)C3c2ccc(C(F)(F)F)cc2)c1 (stereo not given in full),13.5%&4.0%,-0.5%,10.6,4.3%,-3.5&5.0,x,6.7
O=C(N/N=C/c1cccnc1)c1ccc(Cl)c(Cl)c1,x,1.5%,x,5.4%,x,5.3%[15.4 µM],2.7
Cc1nc2cc(-c3cccc(Cl)c3)nn2c(N2CCN(C(=O)c3ccco3)CC2)c1C,5.9%,x,1.3,x,-3.3,x,x
Cc1ccc(-n2ncc3c(NCc4cccnc4)ncnc32)cc1C,-8.1%,3.4%,-9.2,-7.0%,-0.2,33.4%,u
Cc1cccc(C(=O)Nc2ccc(O)cc2)c1,-11.1%,-0.5%,-20.9,-1.5%,0.3,5.9%,-3.8
CCCCN(CCCNC(=O)c1ccc(CS(=O)(=O)c2ccc(OC)cc2)o1)Cc1ccccc1,13.9%,-0.2%,-5.9,10.0%,x,24.1%,-4.8
COc1ccc(NC(=O)CCCN2C(=O)/C(=C\c3ccco3)SC2=S)cc1,u,-2.3%,8.8,-13.9%,u,0.0%,-5.6
CC(=O)Nc1ccc(Nc2nc(-c3ccccc3)nc3ccccc23)cc1,2.2%,4.0%,1.7,u,-1.9,12.9%,-8.4
COc1ccc(Nc2nc(N3CCCC3)nc3ccccc23)c(OC)c1,-2.1%,-7.2%,-7.8,-10.6%,3.6,4.6%,5.3
CCN(CC)C(=O)C1CCCN(Cc2ccccc2C(F)(F)F)C1 (stereo not given),-32.4%,2.0%,-28.8,6.9%,1.9,11.4%,3.0
CCOc1ccc(C(=O)NC(=S)Nc2ccccc2OC)cc1[N+](=O)[O-],7.5%,-1.4%,-6.2,9.7%,0.3,-10.1%,1.2
COc1ccc(CCNC(=O)CSc2nc3sc(C(=O)O)c(C)c3c(=O)[nH]2)cc1OC,-2.2%,-3.7%,-2.3,-14.7%,13.3,-0.6%[15.4 µM],9.7
COCCn1c(SCC(=O)Nc2cccc(C)n2)nnc1-c1ccco1,27.3%,x,0.9,-2.4%,2.9,23.7%,5.8
CCOC(=O)C(CC1=CS(=O)(=O)c2ccc(Cl)cc21)(NC(C)=O)C(=O)OCC,x,0.9%,x,x,x,22.0%,3.8
O=C(NCc1ccc2c(c1)OCO2)c1cc2ncc(Br)cn2n1,-3.4%,-6.3%,7.7,4.3%,-1.3,-32.2%[inhibitor],2.9
CCOC(=O)c1[nH]c(C)c(CN(CCc2ccccc2)C(=O)CCC(=O)O)c1C,1.5%,-0.8%,x,-19.4%,4.6,-24.9%,-2.2
O=C(O)c1cc(-c2ccc(/C=N/NC(=S)Nc3ccccc3)o2)ccc1Cl,39.8µM*,x,8.7,0.8%,20.2,-12.6%,-8.4
Cc1ccc(-c2cc(C(=O)Nc3ccccn3)c3ccccc3n2)o1,22.4µM*,0.1%,-15.9,3.1%,3.1,-8.8%[15.4 µM],3.6
O=C(CCC(=O)N1CCCC1)Nc1ccc([N+](=O)[O-])cc1,10.6%,x,-2.5,2.3%,0.4,23.2%,-3.3
CCN1/C(=C2\SC(=S)N(Cc3ccccc3)C2=O)Sc2ccccc21,-2.7%,-6.8%,5.5,0.3%,-1.2,-0.6%,0.0
COc1cccc(CN2CCN(C(=O)c3oc4c(F)cccc4c3C)CC2=O)c1,6.4%,-1.5%,-5.1,-22.3%,1.0,-1.8%,-0.2
COc1ccccc1/C=C/C=N/n1c(-c2cc(C)[nH]n2)n[nH]c1=S,-21.2%,-26.4%,-3.5,-14.3%,0.9,4.1%,-17.9
CN(CC(=O)Nc1ccc(F)cc1)C(=O)CN1C(=O)NC2(CCCc3ccccc32)C1=O (stereo not given),13.8%,-0.5%,14.2,15.5%,x,-4.0%[15.4 µM],-4.0
